# Bfl-1 A1 inh: inhibitors of the anti-apoptotic protein A1, read as caspase activation | MEF A1-2A-BIM cells, Caspase-Glo 3/7 luminescence, 3 h; percent of clofoctol response, vehicle zero | caspase activation, % (test concentration not listed) | 0.066% of 330,000 active | AID 2462;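 active = over half of replicate activation scores above 10%, or exactly half above 10 with the replicate mean above 10; inconclusive = replicate mean below 10 yet half the replicates above 10; inactive = over half of replicates below 10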;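 also: wells of about 30 µL received 50 nL stock; many hits fall short of the cut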
# LANA-H2B inh: blocks KSHV LANA binding to histone H2A/H2B. Q9QR71. cell-free LANA-H2A/H2B peptide, fluorescence polarization. inhibition, % (no concentration beside the values). 0.6% of 320,000 active; in the data active = inhibition mostly above about 10%, no sharp cut-off; inactive = mostly below about 6.7%;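 also: stock transfer was 7.5 nL into about 10 µL; 0% = median of vehicle wells and 100% = median of positive control wells; one replicate is shown; the record names a cut of 25% in any replicate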
# Target sequence (Q9QR71 whole entry, looked up): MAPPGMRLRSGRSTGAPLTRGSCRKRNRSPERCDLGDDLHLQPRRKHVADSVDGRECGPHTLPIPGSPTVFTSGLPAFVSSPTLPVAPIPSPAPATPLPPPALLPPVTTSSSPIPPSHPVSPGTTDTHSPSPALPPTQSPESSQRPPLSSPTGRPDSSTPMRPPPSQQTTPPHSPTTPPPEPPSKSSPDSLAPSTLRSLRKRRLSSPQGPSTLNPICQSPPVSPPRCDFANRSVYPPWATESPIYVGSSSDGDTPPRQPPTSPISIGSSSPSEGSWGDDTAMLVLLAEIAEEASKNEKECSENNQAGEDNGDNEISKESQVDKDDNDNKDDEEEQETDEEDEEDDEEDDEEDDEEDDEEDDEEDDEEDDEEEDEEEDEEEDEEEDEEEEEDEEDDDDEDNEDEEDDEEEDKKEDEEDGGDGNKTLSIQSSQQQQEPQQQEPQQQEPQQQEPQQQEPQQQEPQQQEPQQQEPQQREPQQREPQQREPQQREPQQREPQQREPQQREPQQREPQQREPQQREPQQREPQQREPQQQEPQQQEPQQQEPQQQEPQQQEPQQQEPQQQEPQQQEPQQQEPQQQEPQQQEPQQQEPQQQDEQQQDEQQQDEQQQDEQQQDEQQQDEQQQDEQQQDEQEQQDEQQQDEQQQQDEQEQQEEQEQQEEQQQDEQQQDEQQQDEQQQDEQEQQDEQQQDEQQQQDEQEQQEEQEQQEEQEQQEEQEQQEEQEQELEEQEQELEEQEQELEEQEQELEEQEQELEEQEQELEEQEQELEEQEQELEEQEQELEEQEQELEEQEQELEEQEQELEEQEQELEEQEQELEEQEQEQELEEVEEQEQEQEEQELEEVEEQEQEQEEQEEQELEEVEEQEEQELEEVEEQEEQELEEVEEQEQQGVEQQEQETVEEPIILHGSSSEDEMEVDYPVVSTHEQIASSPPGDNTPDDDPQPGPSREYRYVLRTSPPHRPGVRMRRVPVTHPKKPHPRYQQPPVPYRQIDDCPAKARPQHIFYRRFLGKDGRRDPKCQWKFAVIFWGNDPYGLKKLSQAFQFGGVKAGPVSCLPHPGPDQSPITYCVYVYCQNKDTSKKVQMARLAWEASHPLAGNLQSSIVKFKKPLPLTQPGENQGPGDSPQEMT
# ALR H2O2 inh: blocks human ALR sulfhydryl oxidase activity. P55789. AID 485317. inhibition, % (test concentration not listed). 3.8% of 290,000 active. purified ALR, DTT oxidation, H2O2 HRP-luminol luminescence;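 active = mean and each replicate at 75% or more; inconclusive = only one of the two met; inactive = neither met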;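 also: stock transfer was 7.5 nL into about 7.5 µL; 0% = neutral wells and 100% = wells with inactivated enzyme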
# rRNA inh HTS: selective bacterial rRNA inhibition in E. coli; E. coli WT GFP vs humanized-ribosome RFP mutants, fluorescence, 24 h; stronger effect = lower value; DMSO median 0, no signal -100; GFP signal change (wild-type ribosome), % (no concentration beside the values); 1.6% of 350,000 active; AID 720706;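 active = significant combined selectivity score with lowered wild-type GFP, culture density cut under 30%, mutant RFP and density less affected; inactive = any of these conditions unmet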; also: one replicate is shown; some compounds called inactive have numbers as strong as hits
# T cruzi inh: T. cruzi replication inhibition; T. cruzi beta-gal in NIH3T3, luminescence, 90 h; inhibition, % (concentration not given with the values); 1.4% of 300,000 active;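 active = mean inhibition across valid replicates above about 55%, limit read from the data; inconclusive = mean below that limit but half or more replicates reach it; inactive = mean below it, under half of replicates reach it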;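 also: signal also drops with host cell toxicity which is not excluded here; 0% = plate median of DMSO wells and 100% = zero luminescence signal; higher percent means less beta-gal luminescence so fewer parasites; stock transfer was 50 nL into about 50 µL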
# B2AR ag: human beta-2 adrenergic receptor agonism by FAP | 0.43% of 340,000 active | response, % (concentration not given with the values) | Am2.2-beta2AR cells, FAP receptor internalization, flow cytometry; reference of the scale not given here;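 active = response above a set limit, near 3 SD of response in nonfluorescent compounds, cut at about 42% in these data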;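 also: stock transfer was 100 nL into about 11 µL; a reference agonist was the positive control; negative values mostly stem from fluorescent compounds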
# Calb FLC: affects C. albicans growth with fluconazole | C. albicans CaCi-2 (fluconazole-resistant clinical isolate) + fluconazole, Alamar Blue growth, 48 h | growth inhibition, % (concentration not given with the values) | 0.57% of 300,000 active | AID 1979;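 active = most replicates above 75%; inconclusive = exactly half above 75%; inactive = most below 75%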;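 also: all wells also contain fluconazole at 8 µg/ml as a sub-toxic cotreatment; 0% = median of DMSO wells and 100% = median of geldanamycin control wells; wells of about 8 µL received 7.5 nL stock; the first replicate is given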
# Beta cell apopt: blocks beta cell apoptosis; protection from apoptosis, % (concentration not given with the values); INS-1E cytokine-induced death, ATP luminescence, 48 h; percent of positive-control rescue, neutral wells zero; 0.8% of 300,000 active;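 active = all replicates at 75% or more, or half of them and the mean; inconclusive = half reach 75% but not the mean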;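 also: 0% = cytokine-treated negative control wells and 100% = positive control rescue; higher means more ATP so stronger rescue from cytokine killing; wells of about 40 µL received 100 nL stock; the first replicate is given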
# rRNA inh HTS OD600: second read-out of rRNA inh HTS, no call of its own (marks repeat the call); OD600 change, %; measured here: OD600 growth;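 optical density of the mix in the first replicate; 0 = DMSO median and -100 = no signal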
# rRNA inh HTS RFP: also measured in rRNA inh HTS; calls as there; RFP signal change, %; measured here: RFP humanized mutant strains;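 first replicate; 0 = DMSO median and -100 = no signal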
# Active calls of the source: *; ? = inconclusive; . = not tested or not shown; & = joins results of further samples. A portion of the library; count on the stated rates, not on these rows.
SMILES,Bfl-1 A1 inh,LANA-H2B inh,ALR H2O2 inh,rRNA inh HTS,rRNA inh HTS OD600,rRNA inh HTS RFP,T cruzi inh,B2AR ag,Calb FLC,Beta cell apopt
COc1ccc(S(=O)(=O)N=C2C=C(C)C(=O)C(C)=C2)cc1,0.7,0.7,-96,.,.,.,4,-4,-5,1
COCCCNC(=S)N1CCCN(c2nc3cc(C)ccc3cc2C#N)CC1,-1.2,-0.4,-19,6,-5,2.6,9,10,-17,-7
O=C(NC1(C(F)(F)F)NC(=O)N(C2CCCC2)C1=O)C1CC1 (stereo unspecified),0.1,2.3,-1,.,.,.,-16,-7,-9,.
Cc1cc(CN2CCC(n3nccc3NC(=O)c3ccccc3Cl)CC2)cc(C)c1O,1.5,1.4,25,-1,5,1.7,-3,9,3,-1
COc1ccc(CCNC(=O)c2ccc3c(c2)OCO3)cc1,-0.3,0.2,6,3,5,0.9,-4,5,-6,1
N#Cc1c(SCC(=O)O)nc(N2CCCCC2)c2c1CCCC2,0.0,-2.9,7,.,.,.,-10,-2,-9,2
COc1cccc(-n2cn[nH]c2=S)c1,-0.9,-3.5,.,23,14,1.3,-9,2,14,0
CCC(=O)N1CCc2cc(S(=O)(=O)NCCC(=O)Nc3cc(C)cc(C)c3)ccc21,0.3,1.0,-1,.,.,.,-1,-4,5,5
Oc1ccc2c(c1)C1CCCC1(N1CCOCC1)O2 (stereo unspecified),0.7,1.8,36,.,.,.,-6,8,-5,0
Cc1cccc(CN2CCN(CC(=O)N3CCCC3)C2=O)c1,0.6,2.0,.,.,.,.,-4,21,12,-4
CCCCOc1ccc(/C(O)=C2/C(=O)C(=O)N(CCN(C)C)C2c2ccc(O)c(OC)c2)cc1 (stereo unspecified),1.0,5.8,29,.,.,.,-8,-8,-5,-2
C=CCN1C(=O)CSC1=Nc1ccc(O)cc1,-0.7,-1.9,99*,.,.,.,-8,-6,-4,-6
COC(=O)C1=CN(CC2CCCO2)C=C(C(=O)OC)C1c1cccc(O)c1 (stereo unspecified),0.1,2.0,-7,9,8,1.8,-12,-10,2,-5
O=C(NCCc1ccccc1)C1CCN(S(=O)(=O)c2ccc(-c3nn[nH]n3)cc2)CC1,0.1,3.9,2,.,.,.,-2,7,-7,1
CCOCCn1c(CN2CCCCC2)nc2c1c(=O)n(C)c(=O)n2C,-0.2,3.1,-20,0,3,-2.5,-11,8,-3,3
Cc1cc(C(=O)COC(=O)c2ccc(N)c([N+](=O)[O-])c2)c(C)n1-c1ccc2c(c1)OCO2,0.0,2.9,-11,-5,-1,-1.0,28,6,-10,21
c1ccc(CN(Cc2ccccc2)c2c3c(nc4ncnn24)CCC3)cc1,0.9,9.8,-30,-5,3,-1.9,5,-4,4,0
O=C(CCN1CCN(Cc2ccccc2)CC1)Nc1cccc(Cl)c1,0.5,-5.4,-5,.,.,.,55*,1,-10,-3
Cc1cc(C)nc(SCc2ccc(C(=O)N/N=C/c3cccnc3)cc2)n1,0.1,2.8,-19,.,.,.,-8,0,5,11
Cc1nc(NC(=O)COC(=O)CCC(=O)c2cccs2)c(Cl)cc1Cl,0.2,2.6,37,1,-9,2.9,-10,5,21,-3
COCC(=O)OCC(=O)Nc1ccc(Cl)cc1[N+](=O)[O-],-0.4,.,.,4,6,-2.3,9,-4,2,-3
C=CCN(C(=O)c1csnn1)C(C(=O)NCc1ccc(F)cc1)c1cccs1 (stereo unspecified),0.9,-4.2,10,2,3,2.2,7,0,-1,17
CN1C(=O)C2(Nc3ccccc3-c3nc4ccccc4n32)c2ccccc21 (stereo unspecified),-0.6,2.0,-1,.,.,.,17,8,1,-8
O=C(O)CCCc1ccc2ccc3cccc4ccc1c2c34,0.0,-1.5,-12,-10,-27,-6.6,-10,1,30,-5
CCN(CC)CCCN(Cc1cc2cc3c(cc2[nH]c1=O)OCO3)C(=S)NCCCN(C)C,0.8,-4.1,0,19,1,9.7,-7,2,3,-8
Cc1ccc(-n2cc(CNCCc3cscn3)c(-c3ccc(F)cc3)n2)cc1,0.2,-2.3,-6,-59,-80,-15,34,0,-6,.
CC(C)NC(=O)c1c(CSc2ccccc2)noc1C(=O)NCc1ccccc1,0.0,-2.0,1,3,-4,1.7,-2,-3,-10,-1
COc1ccccc1CNC(=O)CCS(=O)(=O)c1ccc2c(c1)CCN2C(C)=O,0.2,1.7,-4,19,17,-6.3,5,-1,0,-5
Cc1sc2c(c1C)c(=O)n(-c1ccccc1)c1nnc(C)n21,1.0,4.9,1,.,.,.,-21,-17,6,-6
CC(C)=CCc1cc2c(=O)c3c(O)c4c(cc3oc2c(O)c1O)OC(C)C4(C)C (stereo unspecified),-0.5,-5.8,-20,.,.,.,67*,.,95*,109*
CCOCCc1c(O)nc(SCCOc2ccc(C)c(C)c2)[nH]c1=O,-0.6,0.0,-1,-6,-3,-3.3,5,0,2,0
CCc1ccc(CN(C)C(=O)CCc2nnc(-c3ccc(-c4ccccc4)cc3)o2)nc1,0.6,-2.2,-6,-2,-9,-0.3,27,5,6,9
COc1ccc(OC)c(-c2cc(C(=O)Nc3cc(C)on3)no2)c1,0.2,0.3,3,.,.,.,10,-4,-13,6
CC(C)(C)C1CCC(OC(=O)c2cncc(Br)c2)CC1 (stereo unspecified),0.1,0.3,8,24,4,-1.3,-2,0,1,-1
O=C(COc1cccc(C(F)(F)F)c1)Nc1ccc(S(=O)(=O)N2CCCCC2)cc1,0.6,1.4,-8,9,-4,2.2,14,11,-4,2
Cc1ccc(/C=C/C(=O)NC2CCS(=O)(=O)C2)cc1 (stereo unspecified),-0.3,-0.8,-7,.,.,.,-2,4,0,-5
Clc1cccc(OCCCn2ccnc2)c1,-1.2,2.9,-7,2,2,2.0,23,-9,-8,-2
C=CCNC(N)=S,0.9,-0.1,-11,9,14,2.6,-26,7,-9,-8
CC(C)(C)C(=O)CSc1ncnc2c1cnn2-c1ccccc1,-2.6,-0.6,-3,.,.,.,-4,1,6,-3
COc1ccc(C2CC(c3cccs3)=NN2c2ccc(C=O)cc2)cc1 (stereo unspecified),0.3,-17,-2,15,-3,14,24,.,2,-5
CC(C)NC(=O)NC(=O)COC(=O)c1cc[n+]([O-])cc1,1.0,2.7,4,16,5,-1.1,-15,2,4,-2
CCc1nccn1S(=O)(=O)c1ccc2ccc(C)cc2c1,-2.3,-0.8,.,.,.,.,.,2,-10,-6
COc1ccc(N2C(=O)CC(Sc3ncn[nH]3)C2=O)c(OC)c1 (stereo unspecified),0.4,-0.5,-1,.,.,.,2,15,-2,-7
O=c1c2ccccc2nc2ccc(N3CCOCC3)nn12,-0.9,3.8,-25,.,.,.,5,-2,-1,1
COc1ccc(/C=N/NC(=O)Cn2nc([N+](=O)[O-])cc2C)c(OC)c1OC,0.7,1.5,-6,16,17,0.6,8,1,-4,1
COc1ccc(S(=O)(=O)N2CCCCC2)cc1NC(=O)c1cccnc1SC,-0.7,-1.7,-12,5,2,-1.4,-5,-1,-10,-1
CCNC(=O)[C@H]1O[C@@H](n2cnc3c(N)nc(NCCc4ccc(CCC(=O)O)cc4)nc32)[C@H](O)[C@@H]1O,?,0.2,-7,.,.,.,9,7,5,3
Cc1ccc(C)c(Cn2nc3c4ccccc4n(Cc4ccccc4)cc-3c2=O)c1,.,.,.,10,8,-1.2,36,-7,0,.
CC(NC(=O)Nc1nccs1)(C(F)(F)F)C(F)(F)F,0.3,-0.5,0,.,.,.,4,-7,-19,-4
N/C(=N\OC(=O)CCC1CCCCC1)c1cccnc1,0.0,2.5,-2,.,.,.,-9,-4,-18,-10
CCN(CC)S(=O)(=O)c1ccc(Cl)c(NC(=O)COC(=O)c2nc3nc(C)cc(C)n3n2)c1,0.1,2.2,-6,7,2,-1.3,.,-8,.,2
O=C(CSCC(=O)Nc1nccs1)Nc1ccccc1,0.7,0.3,99*,3,3,-2.5,-3,-19,-13,-3
C=CCOc1ccc(C2/C(=C(\O)c3ccc(F)cc3)C(=O)C(=O)N2CCCN(C)C)cc1 (stereo unspecified),1.5,-2.6,1,.,.,.,0,5,19,-6
CN(C)/C=C/C(=O)c1ccc(C(F)(F)F)cc1F,-0.4,4.6,0,15,19,6.6,-17,-2,-20,0
CC(C)NCC(O)(c1ccc(Cl)cc1)c1ccc(Cl)cc1,-0.1,4.1,-3,2,-9,3.4,-18,6,?,8
CN(c1cccc(Cl)c1)S(=O)(=O)c1cccc(C(=O)Nc2nc3ccccc3[nH]2)c1,-0.4,-1.5,71,-43,-46,-22,31,4,20,36
O=C(O)c1c2c(nc3ccc(S(=O)(=O)N4CCC(C(=O)N5CCCCC5)CC4)cc13)CCCC2,0.4,8.0,-36,15,15,9.4,.,-3,.,.
CNC(=O)CN(c1cccc(Br)c1)S(C)(=O)=O,-0.3,-2.6,-3,.,.,.,2,-2,-5,2
COCCNC(=O)NC(=O)CN1C(=O)NC(Cc2c[nH]c3ccccc23)C1=O (stereo unspecified),-0.2,1.4,3,2,0,-3.1,-11,3,-1,-4
CCc1ccc(NC(=O)[C@H](Cc2ccccc2)NC(=O)C2CCN(C(=O)[C@@H](N)CC(C)C)CC2)cc1,-0.7,-4.5,-19,.,.,.,-14,7,-5,.
# Further compounds follow.
SMILES,Bfl-1 A1 inh,LANA-H2B inh,ALR H2O2 inh,rRNA inh HTS,rRNA inh HTS OD600,rRNA inh HTS RFP,T cruzi inh,B2AR ag,Calb FLC,Beta cell apopt
CC(Sc1ccccc1)C(=O)NN=C1CCCCCCC1 (stereo unspecified),0.1,-2.0,-14,9,3,-0.8,-4,1,0,.
O=C(NCc1ccco1)C(Cc1ccccc1)N1C(=O)C2C3C=CC(C3)C2C1=O (stereo unspecified),0.1,-4.3,8,.,.,.,.,-19,2,-6
CCOc1ccc(S(=O)(=O)NCc2ccco2)c2ccccc12,0.3,-3.0,-59,-9,-13,9.2,2,-13,-4,-4
O=C(c1ccc2oc(CCCc3ccccc3)nc2c1)N1CCCC1,-1.7,3.1,-5,-13,-6,-3.1,0,-5,-9,-1
CCN(Cc1ccncc1)C(=O)CCc1nnc(CCC2CCCCC2)o1,-0.2,-2.6,-3,11,3,1.5,12,-1,-5,2
CCOC(=O)C1(Cc2cccc(Cl)c2)CCCN(C(=O)c2cnn(CC)c2)C1 (stereo unspecified),-0.8,3.2,-11,0,3,0.1,8,-2,5,0
O=C(COc1ccccc1F)Nc1nnc(C2CCCC2)s1,-0.2,1.6,2,2,3,-3.6,-7,-2,3,.
Cc1ccc(C)n1-c1c(C(=O)NN)cnn1-c1ccccc1,-0.4,.,1,-4,-11,-7.0,1,6,6,-4
CCc1cc(=O)oc2cc(OC(=O)CN3C(=O)NC4(CCCC4)C3=O)ccc12,-0.5,1.0,30,9,1,-2.7,-20,5,0,-8
CC(C)NC(=O)N(C)C[C@H]1Oc2c(NS(=O)(=O)c3cn(C)cn3)cccc2C(=O)N([C@H](C)CO)C[C@@H]1C,0.2,0.4,2,5&15,14&8,0.2&1.5,.,-2,.,-5
